# Compound activity deposited in PubChem BioAssay by National Center for Advancing Translational Sciences (NCATS).
# Anthrax LT inh: blocks cellular internalization of anthrax lethal toxin; Potency, µM (highest dose often 40 µM), for the others: at the top dose activity change, negative = inhibition, actives largely listed as inhibitors; Cells, anthrax lethal toxin internalization, FRET ratio (460/530); actives 0.67% (n = 70,000); active = well fitted falling ratio curve with the 530 nm signal flat; inconclusive = other ratio curves, or a change in one channel alone; inactive = flat curves in the ratio and both channels; the % refers to the ratio; note: % is set by controls: 0 for no effect and ±100 for the full control effect; nearly all actives have a fitted effect of over 50% in size; tested in ME-180 cells; beta-lactamase reporter
# Prx2 Sm inh: inhibitors of Schistosoma mansoni peroxiredoxin 2. S. mansoni Prx2 activity coupled to TGR/GSH (TGR is thioredoxin glutathione reductase), NADPH fluorescence loss, qHTS; some inactives read as strong as hits. Potency, µM. actives 0.07% (n = 65,000); active means full or partial inhibition curve with a strong effect at the top dose; inconclusive means weaker partial or single-point curve; inactive means no accepted curve; note: series up to 57 µM; many of its hits are not listed in these tables
#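 Prx2 activity was followed as the loss of NADPH fluorescence (ex 365/em 450 nm), read every 30 sec for 8 min after H2O2 start. The enzyme mix (50 nM Prx2, 25 nM TGR, GSH, NADPH; pH 7.4 phosphate buffer) was incubated with compound for 15 min at room temperature first.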
# Active calls of the source: *; ? = inconclusive; . = not tested or not shown; [ ] = dose if it differs, or a comment. Potency is the fitted concentration of half-maximal effect.
Compound,Prx2 Sm inh,Anthrax LT inh
COC(=O)c1ccc(N2C(=O)CC(Sc3n[nH]c(C)n3)C2=O)cc1 (configuration not stated),>57,?
CCOc1ccccc1C1C(C#N)=C(N)Oc2cc(C)n(Cc3ccccn3)c(=O)c21 (configuration not stated),>57,?
O=C(Cn1c(=O)sc2ccccc21)Nc1nc2c(s1)CCCC2,>57,-4%
Clc1ccc(CS[C@@H](Cn2ccnc2)c2ccc(Cl)cc2Cl)cc1,>57,-5%[3.58 µM]
CC(C)OCCCNc1nc2c(c(=O)n(Cc3ccccc3F)c(=O)n2C)n1C,>57,?
Cc1cc(C(=O)COC(=O)C2=COCCO2)c(C)n1-c1ccc2c(c1)OCO2,>57,-24%
O=c1c(-c2cccs2)nc2cncnc2n1Cc1ccccc1,>57,?
Cc1oc(-c2ccccc2F)nc1CS(=O)CC(=O)NCc1ccc2c(c1)OCO2 (configuration not stated),>57,-11%
C=CCN1C(=O)C(C)(C)N(C(C)=O)c2ccccc21,>57,-1%
Cc1nn(-c2cccc(C(=O)O)c2)c(C)c1Oc1ccccc1O,>57,7%
O=C1C(C=NCCCN2CCOCC2)=C(O)c2ccccc21,>57,?
CC1C(O)=C(c2nc3ccccc3[nH]2)C(=N)N1c1ccccc1 (configuration not stated),>57,-16%
O=C(CSc1nnc(SCc2ccc(Cl)cc2)s1)N1CCN(C(=O)c2ccco2)CC1,>57,2%
CC[C@]1(c2ccccc2)NC(=O)N(C)C1=O,>57,1%[3.58 µM]
Cc1cc(C(=O)OCC(=O)N(C)C2CCS(=O)(=O)C2)c(C)n1-c1ccccc1 (configuration not stated),>57,-5%
COC(=O)c1ccc(C(NC(=O)OCc2ccccc2)/C(C)=C/[C@@H](C)C(=O)NCCO)cc1 (some centres not stated),.,-13%
N=C1Sc2ccccc2C2=NCCCN12,>57,0.025µM*
COc1ccc(O)c(-c2cn[nH]c2-c2cccs2)c1,>57,-11%
O=C(Nc1ccc2c(c1)OCCO2)C1CCCN(S(=O)(=O)c2cccnc2)C1 (configuration not stated),>57,?
COc1ccc(CN2CCN(Cc3ccccc3)CC2)c(OC)c1,>57,1%
O=C(CSc1nc(O)c(C2CCCCC2)c(=O)[nH]1)Nc1ccc(Cl)cc1,>57,4%
Cn1c(NC(=O)c2cc(-c3ccc4c(c3)OCO4)nc3ccccc23)cc(=O)n(C)c1=O,>57,?
Cc1cc(C)nc(SCC(=O)N2CCOCC2)n1,>57,-7%
COc1cccc(-c2cc(C(=O)N3CCN(C(c4ccccc4)c4ccccc4)CC3)no2)c1,>57,?
COCC(C)NC(=O)c1cc(-c2ccccc2OC)on1 (configuration not stated),>57,-11%
COc1ccc(OC)c(S(=O)(=O)NCc2cccnc2)c1,>57,-7%
CCN(CC)S(=O)(=O)c1ccc2c(c1)nc(SCn1nnc3ccccc3c1=O)n2CC,>57,-10%
O=c1[nH]c2cc(Cl)cc(Cl)c2[nH]c1=O,>57,?
O=C(O)CCn1c(SCc2ccccc2)nc2ccccc21,>57,14%
CCCCCn1c(=O)[nH]c2cc(C(=O)O)ccc2c1=O,>57,-1%
O=c1[nH]c(=S)c2[nH]c(=O)n(-c3ccccc3)c2[nH]1,>57,-1%[8 µM]
CC(C)CCNC(=O)CN(CC1CCCO1)C(=O)CCC(=O)Nc1nccs1 (configuration not stated),>57,-12%
Cc1nc2cnc(N3CCNCC3)nc2n(C)c1=O,>57,?
CCNc1nc(NCC)n2c(SCC(=O)O)nnc2n1,>57,1%
CCCOc1ccccc1Cn1c(=O)oc2ccc(C)cc21,>57,?
c1ccsc1,.,-13%
O=C(Nc1c(C(=O)NCc2ccco2)cnn1-c1ccccc1)c1cccc(F)c1,>57,2%
CC(C)N(CCO)C(=O)C(c1ccccc1)c1ccccc1,>57,-8%
O=C(c1ccc(NS(=O)(=O)c2cccc3cccnc23)cc1)N1CCOCC1,>57,12%
COc1ccc(-n2c(Cc3cccn3C)nnc2SCC(=O)NC2CCCC2)cc1,>57,8%
COC(=O)CN1C(=O)COc2ccc(Cl)cc21,>57,3%
CCOC(=O)c1ccc(NC(=O)C(CC)CC)cc1,>57,-15%
Cc1ccc(NC(=O)CN2C(=O)COc3ccc(C)cc32)nc1,>57,-9%
O=C(CCCSc1nc2ccccc2s1)NC1=NCCS1,>57,2%
O=C(Cn1c(=O)[nH]c2ccsc2c1=O)NC1CCCCC1,>57,2%
CCCNC(=O)OC[C@@H]1O[C@H](CCO/N=C(\C)CCC(=O)OC[C@@H]2O[C@H](C#Cc3ccccc3)C=C[C@@H]2Oc2ccc(C)cc2)C=C[C@@H]1Oc1ccc(OC)cc1,.,-2%[8 µM]
CCCN1CCN(C(=O)c2cccc3c2C(=O)N(CCOC)C3)CC1,>57,0%
COc1ccc(OC)c(NC(=O)CN2CCC(C(=O)c3ccc(C)cc3)CC2)c1,>57,-16%
Cc1ccc(NC(=O)Cn2c(=O)n(CCCCC(=O)NCc3ccco3)c(=O)c3ccccc32)cc1,>57,5%
COc1ccc(OC)c(-c2cc(C(=O)Nc3cc(C)n(Cc4ccc(Cl)cc4)n3)no2)c1,>57,?
Cc1ccc2c(c1)NC(=O)C(CC(=O)NCc1cccnc1)O2 (configuration not stated),>57,-25%
COc1cccc(NC(=O)Nc2nnc(N3CCCCC3C)s2)c1 (configuration not stated),>57,-26%
O=c1c2c(nc3n1CCCCC3)-c1ccccc1CC21CCCC1,>57,-5%
CCOC(=O)c1cnc(-n2nc(C)cc2C)nc1Nc1cccc(C(C)=O)c1,>57,-10%
C=CCN1CC[C@]23c4c5ccc(O)c4O[C@H]2/C(=N/NC(=O)c2ccccc2)CC[C@@]3(O)[C@H]1C5,.,-26%
CC(C)(C)c1ccc(C(=O)/C=C2\NC(=O)CS2)cc1,>57,-13%
CC(=O)C1=C(C)OC(N)=C(C#N)C1c1ccco1 (configuration not stated),>57,-9%
O=S(=O)(Nc1ccc(N2CCOCC2)cc1)c1cccs1,>57,?
CS(=O)(=O)N(CC(=O)Nc1ccc2c(c1)OCCO2)c1ccc2c(c1)OCO2,>57,9%
CC(C)CC(C)Nc1ccc(Nc2ccccc2)cc1 (configuration not stated),.,?

# Pulled by structure from above, two records:
Compound,Prx2 Sm inh,Anthrax LT inh
CCCOc1ccccc1Cn1c(=O)oc2ccc(C)cc21,>57,?
CC(C)N(CCO)C(=O)C(c1ccccc1)c1ccccc1,>57,-8%

# Continuation.
Compound,Prx2 Sm inh,Anthrax LT inh
Cc1ccc(-c2cc(C(=O)NCCCn3ccnc3)c3cc(Br)ccc3n2)o1,>57,-3%
Brc1ccccc1CN1CCC(N2CCCCC2)CC1,.,10µM*
N#Cc1c(NCCO)nc(NCc2ccccc2)c2c1CCN(Cc1ccccc1)C2,>57,?
Cc1cnc(NC(=O)CSc2nnc(-c3cccs3)n2C)s1,>57,-5%
Cc1cc(C)n2nc(C(=O)Nc3cccnc3)nc2n1,>57,-3%
CC(=O)N1CC=CC1(CC(C)C)C(=O)NCc1ccc(C)o1 (configuration not stated),.,8%
Cc1ccc(C(=O)N2CCN(c3ccccc3)CC2)cc1C,.,-5%
Cc1cc(C)c(C#N)c(=N)o1,>57,5%
O=c1cc(N=Nc2ccc(O)cc2)[nH]c(=O)[nH]1,>57,-5%[8 µM]
CCOC(=O)Nc1oc2ccccc2c(=O)c1CN1CCOCC1,>57,-12%
O=c1[nH]c(SCc2cccc(Cl)c2)nc2c1CCCC2,>57,21%
CN1C(=S)SC(C)(C)C1/[N+]([O-])=C/c1cccnc1 (configuration not stated),>57,8%
Cc1cc(NC(=O)c2ccccc2NS(=O)(=O)c2c(C)c(C)cc(C)c2C)no1,>57,-19%
CCOC(=O)N1CCN(C(=O)Cc2cccs2)CC1,.,2%
C=CCn1c(O)c(C(C)=Nc2cc(OC)ccc2OC)c(=O)[nH]c1=O,>57,.
CCCn1cc(S(=O)(=O)CC(=O)NC2CCCCC2)c2ccccc21,>57,6%
CN(C)C(=O)c1ccc(-c2cc(NCc3cccs3)ncn2)cc1,>57,-5%
Cc1cc(C)n2nc(C(=O)OCCOc3ccc(F)cc3)nc2n1,>57,-5%
CN1[C@@H]2CC[C@H]1CC(O)C2 (some centres not stated),>57,4%[3.58 µM]
CC1CN(Cc2nc3c(c(=O)n(C)c(=O)n3C)n2Cc2cccc(Cl)c2)CC(C)O1 (configuration not stated),>57,14%
CCOc1cc(C(=O)Nc2ncccn2)cc(OCC)c1OCC,>57,.
CC(C)C[C@@H](CC(=O)N[C@@H](CCC(=O)O)CC(=O)O)NC(=O)[C@@H]1CNCC[C@H]1NC(=O)C[C@H](CCCN)NC(=O)C[C@H](Cc1ccccc1)NC(=O)[C@@H]1CNCC[C@H]1N,>57,-6%
Cc1ccc(NC2SC(=O)N(Cc3cccc(C(=O)O)c3)C2=O)cc1 (configuration not stated),>57,2%
COc1ccc(-n2nc(C(=O)NCC(=O)NCc3ccco3)c3ccccc3c2=O)cc1Cl,>57,-22%
COc1ccc(C2CC3(CC(C)(C)NC(=O)N3)Oc3cc(O)ccc32)cc1 (configuration not stated),>57,8%
O=c1oc2c3c4c(cc2cc1-c1nc2ccccc2[nH]1)CCCN4CCC3,>57,-30%
Cn1c(O)c(C=NC2CC(C)(C)NC(C)(C)C2)c(=O)n(C)c1=O,.,14%
CC1CC(C)CN(C(=O)CCCn2c(=S)[nH]c3ccccc3c2=O)C1 (configuration not stated),>57,?
CC(=O)c1cccc(NC(=O)c2cccc(S(=O)(=O)N(C)C)c2)c1,>57,?
N#CCSc1nnc(Cc2ccc3c(c2)OCO3)o1,>57,2%
O=C1c2ccccc2C(=O)c2c(NC(=O)c3ccc4c5c(ncnc35)-c3ccccc3C4=O)cccc21,>57,-3%[8 µM]
CC(CCC(=O)O)(c1ccc(O)cc1)c1ccc(O)cc1,>57,5%[8 µM]
COc1cccc(Cn2c(=O)cnc3cnc(Nc4ccccc4)nc32)c1,>57,?
CN1C(=S)SC(C)(C)C1(C)NO (configuration not stated),>57,.
CC(C)OC(=O)Cn1c(=O)oc2ccccc21,>57,-4%
Cn1c(=O)oc2cc(S(=O)(=O)Nc3cccc(F)c3)ccc21,>57,0%
Cc1c(/C=N/n2cnnc2)c2ccccc2n1CCOc1ccc(Cl)cc1,>57,14%
CCOc1ccc(NC(=O)N(C2CCCCC2)C(C)c2ccncc2)cc1 (configuration not stated),>57,0%
COc1ccc(N2CCN(CC(=O)Nc3ccc(-n4cnnn4)cc3)CC2)cc1,>57,12%
CC(=O)N1CCC2(CC1)CN(c1cccc(-c3ccccc3)c1)C2,>11,-9%
CC(=O)Oc1ccc(Oc2ccc(-c3noc(C)n3)cc2)cc1,>57,?
Cc1cc[c]([Sb]2[O][C@H]([C@H](O)[C@H](O)C(=O)O)[C@@H](CO)[O]2)cc1,>57,-2%[8 µM]
CCN(CC)S(=O)(=O)c1ccc(C(=O)Nc2nnc(C(C)C)s2)cc1,>57,-1%
O=C(O)Cn1cnc2scc(-c3cccs3)c2c1=O,>57,-3%
Cc1ccc(OCC(=O)N2CCN(C(=O)CCC3CCCC3)CC2)cc1,>57,?
COc1ccc2nc(-n3c(C)ccc3C)sc2c1,>57,-15%
Cc1ccc(CNC(=O)C2CCCN(c3nc4ccccc4o3)C2)cc1 (configuration not stated),>57,1%
COCCSc1ccccc1C(=O)NCC1CCCO1 (configuration not stated),>57,?
COc1ccc(NC(=O)COc2nc(N(C)C)nc(N(C)C)n2)cc1,>57,-2%
CN(C)C=NC(=O)/C(C#N)=C1\CCc2ccccc2N1,.,-8%
CCN(CC)C(=O)COc1ccc2oc(C)c(C(=O)OC(C)C)c2c1,.,-15%
CCC(C(=O)Nc1ccccc1C(=O)N1CCCC1)N1C(=O)c2ccccc2C1=O (configuration not stated),>57,14%
CCN1CCN(C(=O)Cn2ncc3ccsc3c2=O)CC1,>57,6%
COc1c(C)cccc1C(=O)Nc1cc(-c2nn3c(C)nnc3s2)ccc1C,>57,?
CCOC(=O)c1ccc(NC(=O)Nc2c(C)nn(C)c2C)cc1,>57,3%
O=C(CCCN1C(=O)c2ccccc2C1=O)Nc1c2c(nc3c1CCC3)CCC2,>57,12%
OC1CCN(C(c2ccc3ncccc3c2)c2nnnn2C2CCCCC2)CC1 (configuration not stated),>57,2%
CCSc1nnc(NC(=O)C2CCCN(S(=O)(=O)c3cnc[nH]3)C2)s1 (configuration not stated),>57,8%

# Gathered by group: those above containing bromine (2)
Compound,Prx2 Sm inh,Anthrax LT inh
Cc1ccc(-c2cc(C(=O)NCCCn3ccnc3)c3cc(Br)ccc3n2)o1,>57,-3%
Brc1ccccc1CN1CCC(N2CCCCC2)CC1,.,10µM*

# These rows are one share of the data (hit frequency here may not be typical).
